High-throughput results from PubChem BioAssay.
Polio RdRp inh – poliovirus RdRp elongation inhibitors, primary screen, biochemical, fluorescence polarization, total intensity; 150,000 compounds, 0.66% hits; AID 588519, 2011; % elongation, % (compound at 16.7 µg/mL); poliovirus polymerase elongation; stronger effect = lower value; Genome polyprotein (Poliovirus type 1 (strain Mahoney)), P03300; in the data active means % elongation below about 90%; further: some results filed as inactive read as strong as hits
Target sequence (P03300 1749-2209 limits assumed): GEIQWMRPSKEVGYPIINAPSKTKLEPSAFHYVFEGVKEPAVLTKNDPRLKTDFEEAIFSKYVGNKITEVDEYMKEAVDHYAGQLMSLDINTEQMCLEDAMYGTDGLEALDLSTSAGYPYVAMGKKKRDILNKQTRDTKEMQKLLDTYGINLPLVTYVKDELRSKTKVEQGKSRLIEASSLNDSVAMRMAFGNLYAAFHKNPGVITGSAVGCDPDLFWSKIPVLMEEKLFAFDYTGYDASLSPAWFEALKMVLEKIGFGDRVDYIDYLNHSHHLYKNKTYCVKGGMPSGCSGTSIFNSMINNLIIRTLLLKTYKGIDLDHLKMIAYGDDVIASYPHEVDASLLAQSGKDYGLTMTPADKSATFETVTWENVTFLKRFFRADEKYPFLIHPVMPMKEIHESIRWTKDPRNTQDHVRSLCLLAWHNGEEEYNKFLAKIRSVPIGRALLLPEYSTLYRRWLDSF
Polio RdRp inh intensity – further read-out of Polio RdRp inh, marked with its call; % elongation; measured here: total intensity read-out; formula for this scale not given here;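 total fluorescence in place of polarization; lower means less elongation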
Starred values were filed as active, the others as inactive.

SMILES	Polio RdRp inh	Polio RdRp inh intensity
COc1ccc(C2c3c(oc4ccccc4c3=O)C(=O)N2c2nc(C)c(C)s2)cc1 (stereo unspecified)	100	104
Cc1ccc(C2=NN(CC(=O)NCCc3ccccc3)C(=O)CC2)cc1	107	110
CCOc1ccc(NC(=O)c2nn(C)c3c2COc2ccccc2-3)cc1	110	110
CCn1c2ccccc2c2cc(CN3CCN(Cc4ccc(Br)cc4)CC3)ccc21	99	102
CCOC(=O)c1c(-c2ccccc2)csc1NC(=O)c1cc(-c2cccc(OC)c2)on1	71*	75*
CCCNC(=O)C1CCC(Cn2c(=O)c3sccc3n(CC(=O)N3CCCC3)c2=O)CC1 (stereo unspecified)	105	106
CCCCOc1ccc(CN2C(=O)C(=O)c3cc(Br)cc(C)c32)cc1OC	111	117
COc1ccccc1CNc1nc2c(S(=O)(=O)c3ccccc3)nnn2c2ccc(Cl)cc12	103	105
COc1cccc(NC(=O)c2cn(C3CCCCC3)c(=O)c3c2c2ccccc2n3C)c1	112	111
CSc1nc(=O)c2c(n1C)NC(=O)CC2c1cc(F)cc(F)c1 (stereo unspecified)	106	108
CCOC(=O)c1c(C)oc2nc(C)nc(Nc3ccc(CC)cc3)c12	99	92
COc1ccc(-n2ncc(C(=O)N3CCN(c4ncccn4)CC3)c2C2CCN(C(=O)OC(C)(C)C)CC2)cc1	106	110
CC(=O)N1CCCc2cc(S(=O)(=O)NCc3ccc(OC(C)C)cc3)ccc21	112	113
COc1ccc(Cl)cc1NC(=O)CSc1nnc2[nH]c(=O)cc(-c3ccccc3)n12	103	101
COc1ccc(CCNC(=O)c2cc(Nc3cc(C)cc(C)c3)nc3ccccc23)cc1OC	103	106
COc1ccccc1CCNC(=O)C(=O)NCC(c1ccco1)S(=O)(=O)c1ccc(C)cc1 (stereo unspecified)	103	90
CCc1cccc(NC(=O)c2ccc3c(c2)c(C)c(C)n3Cc2ccc(F)cc2)c1	107	117
Cc1c(CCNC(=O)c2ccc(Br)o2)sc2nc(-c3ccc(Cl)cc3)nn12	102	105
CCOc1ccc(OCC)c(Nc2nc3ccc(C(=O)c4ccccc4)cc3n3cnnc23)c1	107	113
Cc1ccc(S(=O)(=O)c2nc(S(=O)(=O)c3ccc(C)cc3)c(NCCCOC(C)C)s2)cc1	102	104
Cc1ccc(-n2c(=O)c3ccc(C(=O)NCc4ccco4)cc3n(Cc3ccccc3Cl)c2=O)cc1	103	108
Cc1ccc(-c2nnc(SCC(=O)NC(C)(C)C)nc2-c2ccc(C)cc2)cc1	107	109
COc1ccc(CN(C(=O)Cc2coc3ccc(C)cc23)C2CCS(=O)(=O)C2)cc1 (stereo unspecified)	116	118
Cc1cc(C)c2oc(-c3cccc(NC(=O)c4cc5ccccc5o4)c3)nc2c1	105	109
Cc1ccc(NC(=O)c2cc3c(=O)[nH]c4ccccc4c3n2C)cc1F	104	105
CCc1ccc(CNC(=O)c2ccc3c(c2)nc2n3CCCCC2)cc1	110	116
CCN(c1cc(C)cc(C)c1)S(=O)(=O)c1nnc(NC(=O)c2ccccc2C)s1	107	111
CCOc1ccc(S(=O)(=O)Nc2ccc3oc(C)c(C(=O)OC(C)C)c3c2)cc1	110	111
Cc1ccc(S(=O)(=O)c2nc(-c3ccco3)oc2SC(C)C)cc1	112	113
O=C(NCc1ccccc1)c1ccc2c(c1)CCN2S(=O)(=O)c1ccccc1	101	98
CCOC(=O)c1cccc(NC(=O)C2=C(C)C(=O)OC23CCCCC3)c1	106	113
COc1ccc(CNC(=O)c2ccc(-c3nc(CSc4ccc(C)cc4)c(C)o3)cc2)cc1OC	106	108
CCC(C(=O)Nc1cc(C)ccc1OC)n1nnc(C(=O)OC)c1C(=O)OC (stereo unspecified)	111	110
O=C(NC1CCCC1)c1ccc(CSc2nc3ccncc3n2Cc2cccc(F)c2)cc1	105	103
O=C1CC(c2ccc(Cl)cc2)c2cc3c(cc2N1)OCCO3 (stereo unspecified)	107	111
COc1ccc(CNCc2c(C(=O)O)c(C)n(Cc3ccccc3C)c2C)c(OC)c1	105	104
Cc1cc(C)n(-c2nnc(Nc3ccc(C(C)C)cc3)c3ccccc23)n1	103	103
COc1ccc(-c2cc(C(F)(F)F)nc(SCC(=O)Nc3ccc(C(C)=O)cc3)n2)cc1	103	109
CCCNC(=O)c1ccc(Cn2c(SCC(=O)NC(C)C)nc3ccccc3c2=O)cc1	106	113
CCOc1ccc(C(=O)NCc2nc(-c3ccc(Cl)cc3)no2)cc1OCC	109	111
Cc1cccc(C)c1NC(=O)CN1C(=O)c2ccccc2Sc2ncccc21	111	115
Cc1ccc(C(=O)N2CCCCC2)cc1NC(=O)c1nsc2ccccc12	108	111
Cc1cccc(CCn2c(=O)c3ccccc3n(Cc3cccc(F)c3)c2=O)c1	109	111
CCc1nc(C)cn1S(=O)(=O)c1ccc(Cl)c(Cl)c1OC	105	107
CCc1nonc1NC(=O)c1oc2ccc(Br)cc2c1C	104	103
O=C(COc1ccccc1Cl)OCc1cc(=O)n2nc(-c3cccs3)sc2n1	108	112
COCCCNc1ncnc2c1c(-c1ccccc1)cn2-c1ccc(C)c(Cl)c1	106	105
CCSc1ncc(Cl)c(C(=O)Nc2c(C(=O)c3ccc(C)c(F)c3)oc3ccccc23)n1	119	107
Cc1ccc(OCC(=O)Nc2ccc3[nH]c(=O)sc3c2)cc1	111	114
COc1ccc(S(=O)(=O)Nc2ccc(-c3cn4ccsc4n3)cc2)cc1C	110	101
Cc1c(C(=O)NCc2ccc(Cl)cc2)sc2nc3n(c(=O)c12)CCCCC3	103	106
Cc1ccc(Cl)cc1NC(=O)CCS(=O)(=O)c1ccc2c(c1)n(C)c(=O)c(=O)n2C	102	103
COC(=O)c1nnn(-c2cccc(C)c2)c1N	110	111
O=S(=O)(c1ccc(Cl)cc1)c1nnn2c1nc(NCc1ccc3c(c1)OCO3)c1sccc12	108	105
CCOc1ccc(Cn2c(CNS(=O)(=O)c3cccs3)nc3cccnc32)cc1	115	108
COc1ccc(N2CCN(C(=O)c3nn(C)c4c3CS(=O)(=O)c3ccccc3-4)CC2)cc1	109	107
CCc1ccccc1NC(=O)Cn1nnc(C(=O)NCc2ccccc2Cl)c1N	99	106
COc1ccc(NC(=O)CSc2nc(-c3ccccc3)c3ccccc3n2)cc1	112	113
Cc1ccc(CNC(=O)c2ccc(Cn3c(=O)c4ccccc4n(CC(=O)Nc4ccc(C)cc4)c3=O)cc2)cc1	117	116
CCOC(=O)c1ccc(NC(=O)c2nc(SC(C)C)ncc2Cl)cc1	102	94
Additional structures:
SMILES	Polio RdRp inh	Polio RdRp inh intensity
COc1ccc(-n2c3c(c(=O)[nH]c2=O)C(NC(=O)c2ccccc2Cl)(C(F)(F)F)C(=O)N3)cc1 (stereo unspecified)	104	106
COCCNc1nc2c(c(=O)n(Cc3cccc(Br)c3)c(=O)n2C)n1C	103	108
O=C(Cn1cnc2onc(-c3ccc(F)cc3)c2c1=O)Nc1ccc(F)c(Cl)c1	97	101
COc1ccc(CNC(=O)CCc2c(C)nn(-c3ccc(N4CCCC4)nn3)c2C)c(OC)c1	104	111
O=C(CSc1nncn2c1cc1sccc12)Nc1ccc(Br)cc1F	109	108
COc1ccc(NC(=O)C(=O)NCC(c2cccnc2)N2CCc3ccccc32)cc1OC (stereo unspecified)	113	109
O=C(CCCn1c(=O)c2cccn2c2cccnc21)NCCc1ccc(Cl)cc1	104	100
CCOC(=O)c1ccccc1NC(=O)c1cnc(N2CCOCC2)c2ccccc12	116	116
CNC(=O)c1c(NC(=O)/C=C/c2ccccc2Cl)sc2c1CCC2	113	117
Fc1ccc(-c2cn3cc(Cc4ccc(Cl)cc4)sc3n2)cc1	104	105
CCOc1ccccc1NC(=O)N1CC(CC)Oc2ccccc21 (stereo unspecified)	111	107
CSc1ccc(CCNC(=O)c2cc3c(-c4ccccc4F)nn(C)c3s2)cc1	106	109
CCOc1ccc(C2C(=O)N(C3CCCCC3)CC(=O)N2C2CCCC2)cc1OC (stereo unspecified)	100	104
Cc1cc2[nH]c(=O)c(=O)[nH]c2cc1S(=O)(=O)N1CCN(c2cccc(C(F)(F)F)c2)CC1	101	98
CCOCc1cc(CN2CCN(c3ccccc3OC)CC2)c(O)c2ncccc12	125	125
Cc1oc(-c2ccc(C(=O)Nc3ccccc3F)cc2)nc1COc1ccccc1	108	110
CCCCCn1c(-c2cccc(C)c2)nc2ccccc21	107	98
CCCC(=O)NC(C)c1nc2ccccc2n1Cc1ccccc1 (stereo unspecified)	107	108
Cc1ccc(C)c(Cn2c(C)c(CNCc3ccc(F)cc3)c(C(=O)O)c2C)c1	104	112
COc1ccc(-c2nc(SCC(=O)Nc3ccccc3)c(-c3ccc(F)cc3)[nH]2)cc1OC	107	106
COc1ccc(-c2nc3cc(NC(=O)COc4ccc(F)cc4)ccc3o2)cc1	110	109
Cc1ccc(-n2nnnc2CNC(=O)c2ccccc2F)cc1C	110	109
CCCNC(=O)C1Cc2cc(S(=O)(=O)N3CCCCCC3)ccc2N1C(C)=O (stereo unspecified)	114	115
Cc1ccc(S(=O)(=O)c2cn(Cc3ccc(F)cc3)c3cc(F)c(F)cc3c2=O)cc1	105	102
COc1cccc(NC(=O)CSC2=Nc3ccccc3C3=NC(CC(=O)NCCc4ccccc4)C(=O)N23)c1 (stereo unspecified)	104	100
CN(C)S(=O)(=O)c1ccc2c(c1)nnn2CCNC(=O)Nc1ccc(Cl)cc1	111	115
Cc1ccc(CN(C(=O)c2ccccc2Br)C2CCS(=O)(=O)C2)o1 (stereo unspecified)	116	116
CC1=C(c2ccc(C)c(C)c2)S(=O)(=O)N(Cc2ccc(C(=O)NC(C)c3ccccc3)cc2)C1=O (stereo unspecified)	106	105
CC(=O)N1CCCc2cc(S(=O)(=O)N3CCCC(C(=O)Nc4cc(Cl)ccc4C)C3)ccc21 (stereo unspecified)	114	103
CCCS(=O)(=O)N1CC(=O)N(c2cccc(Cl)c2)C(C)(C(=O)NC2CCCCC2)C1 (stereo unspecified)	103	109
Cc1ccc(C)c(N2CCN(C(=O)CCc3c(C)nc4c(c3C)c(=O)n(C)c(=O)n4C)CC2)c1	108	109
CC(C)c1ccc(NC(=O)CCS(=O)(=O)c2cccc3nonc23)cc1	107	106
CCCn1c2ccccc2c2cnn(CC(=O)N3CCN(c4ccccc4)CC3)c(=O)c21	98	102
COc1ccc(C(CC(=O)Nc2ccc(C)cn2)N2Cc3ccccc3C2=O)cc1OC (stereo unspecified)	108	105
CC(C)c1ccc(NC(=O)C2CCN(S(=O)(=O)c3ccc(Br)s3)CC2)cc1	106	108
O=S(=O)(c1ccc(-c2cc(C(F)(F)F)on2)s1)N1CCN(c2cccc(Cl)c2)CC1	100	98
CC(=O)N1CCc2c(sc3c2c(=O)n(-c2ccccc2C)c(=O)n3CC(=O)c2ccccc2)C1	105	103
CCc1ccccc1NC(=O)Cn1nnc(C(=O)Nc2ccc(OC)c(OC)c2)c1N	107	107
Cc1cc(C)cc(NC(=O)CCC(=O)N2Cc3ccccc3Oc3ncccc32)c1	108	111
COC(=O)c1ccccc1NC(=O)c1sc2nc(C)cc(C)c2c1NC(=O)c1ccccc1Cl	108	111
C=CCC(CC=C)(CNC(=O)C(=O)Nc1cccc(C(F)(F)F)c1)c1ccccc1	100	95
Cc1[nH]c2ccccc2c1SCCNC(=O)c1ccc(F)cc1	105	104
CC(=O)N1CCCc2cc(S(=O)(=O)N3CCC(C(=O)Nc4cccc(Cl)c4C)CC3)ccc21	109	106
COc1cccc(NC(=O)CCCn2c(=O)c3cccn3c3cccnc32)c1	106	117
COc1ccc(OC)c(NC(=O)Cc2c(C(=O)O)n(C)c3ccc(C)cc23)c1	109	105
Cc1c2cnn(CC(=O)NCc3ccccc3)c(=O)c2c(C)n1Cc1cccc(Cl)c1	108	106
Cc1ccc(N(C)S(=O)(=O)c2nnc(NC(=O)CC(C)C)s2)cc1	111	114
Cc1ccccc1S(=O)(=O)Cc1ccc(C(=O)NCc2ccccc2Cl)o1	101	102
O=C(c1ccc2c(c1)N(Cc1ccc(Cl)cc1)C(=O)c1ccccc1S2=O)N1CCCCC1 (stereo unspecified)	108	112
CCOCCc1nn2c(=O)cc(COC(=O)c3ccccc3NC(=O)CC(C)C)nc2s1	103	108
Cn1c(=O)c2c(-c3ccc(Cl)cc3)n(Cc3ccccc3)cc2n(C)c1=O	103	104

In the list so far, 12 contain a furan ring, fused or not.
SMILES	Polio RdRp inh	Polio RdRp inh intensity
CCOC(=O)c1c(C)oc2nc(C)nc(Nc3ccc(CC)cc3)c12	99	92
COc1ccccc1CCNC(=O)C(=O)NCC(c1ccco1)S(=O)(=O)c1ccc(C)cc1 (stereo unspecified)	103	90
Cc1c(CCNC(=O)c2ccc(Br)o2)sc2nc(-c3ccc(Cl)cc3)nn12	102	105
Cc1ccc(-n2c(=O)c3ccc(C(=O)NCc4ccco4)cc3n(Cc3ccccc3Cl)c2=O)cc1	103	108
COc1ccc(CN(C(=O)Cc2coc3ccc(C)cc23)C2CCS(=O)(=O)C2)cc1 (stereo unspecified)	116	118
Cc1cc(C)c2oc(-c3cccc(NC(=O)c4cc5ccccc5o4)c3)nc2c1	105	109
CCOc1ccc(S(=O)(=O)Nc2ccc3oc(C)c(C(=O)OC(C)C)c3c2)cc1	110	111
Cc1ccc(S(=O)(=O)c2nc(-c3ccco3)oc2SC(C)C)cc1	112	113
CCc1nonc1NC(=O)c1oc2ccc(Br)cc2c1C	104	103
CCSc1ncc(Cl)c(C(=O)Nc2c(C(=O)c3ccc(C)c(F)c3)oc3ccccc23)n1	119	107
Cc1ccc(CN(C(=O)c2ccccc2Br)C2CCS(=O)(=O)C2)o1 (stereo unspecified)	116	116
Cc1ccccc1S(=O)(=O)Cc1ccc(C(=O)NCc2ccccc2Cl)o1	101	102

An excerpt; count on the stated rates, not on these rows.
